From PubChem BioAssay
StopGo reporter: High Throughput Screening for Foot and Mouth Disease Virus Antivirals | human cells with a luciferase reporter of 2A StopGo recoding; control for the full effect not named in the record | Potency, µM (doses to about 57.9 µM), for inactives: at the top dose signal change, negative = less light | 410,000 compounds, 1.2% hits; active = well fitted falling curve with a large enough effect; inconclusive = small, poorly fitted or top-dose-only effect; inactive = no such curve, though single readings can be large or run the other way; tested in HEK293T cells; note: % is set by controls: 0 for no effect and ±100 for the full control effect; nearly all actives have a fitted effect of over 45% in size; luciferase light after 4 h
RE007 growth inh: qHTS Assay for Inhibitors of the HIV-1 protein Vpr. S. pombe RE007 Vpr strain, BacTiter-Glo ATP luminescence, 24 h; control for the full effect not named in the record. Potency, µM (series often up to 92.2 µM), inactives show at the highest dose activity change, negative = less growth. 360,000 compounds, 0.21% hits. AID 651644, 2012; active = well fitted falling curve with a large enough effect; inconclusive = small, poorly fitted or top-dose-only effect; inactive = no such curve, though single readings can be large or run the other way;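 note: % is set by controls: 0 for no effect and ±100 for the full control effect; nearly all actives have a fitted effect of over 50% in size; the assay follows cell death caused by Vpr and the record does not say whether a fall means rescue or toxicity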
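Fission yeast strain RE007, carrying one chromosomally integrated HIV-1 vpr copy, was seeded at OD 0.01 in PMG+AL medium with 23 nL pinned compound. After 24 h at 30 °C and 99% humidity, viability was read by BacTiter-Glo luminescence.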
MARV entry inh: qHTS for inhibitors of binding or entry into cells for Marburg Virus; Potency, µM (series often up to 37.8 µM), without a hit: at the top dose activity change, negative = inhibition, usual class: inhibitors; Marburg virus pseudotyped entry inhibition, cell reporter; control for the full effect not named in the record; about a third of the inactives were read at about 46 µM; 300,000 compounds, 1.8% hits; AID 540276, 2011; active = well fitted inhibition curve with a large enough effect; inconclusive = small, poorly fitted or top-dose-only effect, or effect the other way; inactive = flat fitted curve, though single readings scatter; tested in HEK293 cells; about a fifth of its hits are not listed in these tables; note: % is set by controls: 0 for no effect and ±100 for the full control effect; luciferase read-out
NS1 inh: qHTS Assay for Inhibitors of Influenza NS1 Protein Function; S. cerevisiae slowed by influenza A NS1, growth recovery by OD600; Potency, µM (top dose mostly 46.1 µM), for the others: at the top dose activity, positive = more growth; 270,000 compounds, 0.4% hits; active means well fitted rising curve with a large enough effect; inconclusive means small, poorly fitted or top-dose-only effect; inactive means no such curve, though single readings can be large or run the other way; note: nearly all actives have a fitted effect of over 50% in size
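OD600 was taken as the measure of yeast growth restored by compound in an NS1-expressing S. cerevisiae strain. Cells had been washed out of glucose medium and diluted 1:100 into galactose -URA medium, pH 6.0.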
Cruzain noTriton: qHTS Assay for Promiscuous and Specific Inhibitors of Cruzain (without detergent); Cruzipain (Trypanosoma cruzi), P25779; purified cruzain, Z-FR-AMC fluorescence, no detergent; Potency, µM, without a hit: max response, negative = inhibition, hits mostly inhibitors; 200,000 compounds, 2.3% hits; AID 1476, 2009;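 note: plate controls were enzyme without inhibitor for no effect and buffer without enzyme for full effect; nearly all actives have a fitted effect of over 40% in size; top concentration of the series not given in the record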
Target sequence (P25779 123-467 limits assumed): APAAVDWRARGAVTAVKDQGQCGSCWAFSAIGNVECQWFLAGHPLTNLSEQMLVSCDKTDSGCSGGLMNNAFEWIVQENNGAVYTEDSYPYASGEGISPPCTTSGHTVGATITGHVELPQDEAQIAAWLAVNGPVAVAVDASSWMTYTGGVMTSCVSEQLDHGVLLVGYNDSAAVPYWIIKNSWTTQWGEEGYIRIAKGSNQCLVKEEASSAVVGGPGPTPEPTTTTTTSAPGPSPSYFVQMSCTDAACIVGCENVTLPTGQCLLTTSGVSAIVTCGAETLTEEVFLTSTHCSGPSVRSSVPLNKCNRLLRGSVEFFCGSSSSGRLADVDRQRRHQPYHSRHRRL
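Detergent-free condition (0.00005% Triton X-100) in acetate buffer pH 5.5 with DTT. 1.5 nM enzyme and compound were pre-mixed 15 min, then 2 uM Z-FR-AMC substrate added; reaction progress from fluorescence change between first and third reads (60 s).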
LASV entry inh: qHTS for Inhibitors of binding or entry into cells for Lassa Virus. Lassa virus pseudotype entry inhibition, cell reporter; control for the full effect not named in the record. Potency, µM (top dose mostly 37.9 µM), for inactives: at the top dose activity change, negative = inhibition, actives largely listed as inhibitors. 300,000 compounds, 1.2% hits; active means well fitted inhibition curve with a large enough effect; inconclusive means small, poorly fitted or top-dose-only effect, or effect the other way; inactive means flat fitted curve, though single readings scatter; tested in HEK293 cells; note: % is set by controls: 0 for no effect and ±100 for the full control effect; nearly all actives have a fitted effect of over 50% in size; luciferase read-out
Cruzain inh Det: qHTS Assay for Promiscuous and Specific Inhibitors of Cruzain (with detergent). Cruzipain (Trypanosoma cruzi), P25779. purified cruzain, Z-FR-AMC fluorescence, 0.01% Triton. Potency, µM, for the others: max response, negative = inhibition, most hits filed as inhibitors. 200,000 compounds, 0.43% hits. AID 1478, 2009;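 note: plate controls were neutral wells for no effect and buffer without enzyme for full effect; nearly all actives have a fitted effect of over 40% in size; top concentration of the series not given in the record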
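Steps: dispense cruzain (1.5 nM final) in acetate buffer pH 5.5 with DTT and 0.01% Triton X-100; pin-transfer compounds; incubate 15 min RT; add Z-FR-AMC (2 uM final); read fluorescence every 30 s, using the 60 s intensity change.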
SARS PLP yeast: qHTS of Yeast-based Assay for SARS-CoV PLP; S. cerevisiae expressing SARS-CoV PLpro, growth rescue; control for the full effect not named in the record; Potency, µM (series often up to 32.9 µM), without a hit: at the highest dose activity, positive = growth rescue; 330,000 compounds, 0.19% hits; active means well fitted rising curve with a large enough effect; inconclusive means small, poorly fitted or top-dose-only effect; inactive means no such curve, though single readings can be large or run the other way; note: 0% is about no effect; nearly all actives have a fitted effect of over 55% in size; growth read by luminescence after 48 h
* marks the source's active call; other numbers are inactive results; & = joins results of further samples; [ ] = remark or other dose. Unless noted, calls come from the whole dose curve; as a rule, active = well fitted curve in the direction sought with a large enough effect; inconclusive = small, poorly fitted or top-dose-only effect, or another doubt; inactive = no such curve, though single readings can be large; an effect the other way counts as inactive or inconclusive. Potency is the fitted concentration of half-maximal effect.

`CS(=O)(=O)c1oc(-c2ccc(F)cc2)nc1S(=O)(=O)c1ccc(Cl)cc1` gave StopGo reporter 25µM*, MARV entry inh -15%[46.1 µM], Cruzain noTriton 4%, LASV entry inh inconclusive and Cruzain inh Det -5.4%.
Cc1cc(C(=O)COC(=O)c2ccc(Br)o2)c(C)n1C was read as StopGo reporter 36%[activator], RE007 growth inh -13%, MARV entry inh 5%[46.1 µM], LASV entry inh 4% and SARS PLP yeast 0%.
`CSc1nsc(SCC(=O)Nc2c(C)n(C)n(-c3ccccc3)c2=O)n1` gave StopGo reporter -8%, RE007 growth inh -4%, MARV entry inh -16%, NS1 inh 8%, Cruzain noTriton -3%, LASV entry inh 3%, Cruzain inh Det -3.5% and SARS PLP yeast -1%.
For CCOc1ccc(NC(=O)C2CCN(S(=O)(=O)c3c(C)n[nH]c3C)CC2)cc1 the results were StopGo reporter 3%, RE007 growth inh -4%, MARV entry inh 11%, NS1 inh -6%, Cruzain noTriton 2%, LASV entry inh -2%, Cruzain inh Det 4.5% and SARS PLP yeast -14%.
`Cc1ccc(NC(=O)COC(=O)CCc2ccc(S(=O)(=O)N3CCOCC3)cc2)cc1F` gave StopGo reporter 4%, RE007 growth inh 1%, MARV entry inh 23%[46.1 µM], LASV entry inh 10% and SARS PLP yeast -4%.
Screening N#Cc1ccc(C(=O)NC(=S)N2CCN(C=O)CC2)cc1 returned StopGo reporter -3%, RE007 growth inh 15%, MARV entry inh -6%[46.1 µM], LASV entry inh 6%[46.1 µM] and SARS PLP yeast 5%.
`Cc1ccc(NC(=O)CSc2nn3c(=O)c(C)nnc3s2)cc1Cl` gave StopGo reporter -9%, RE007 growth inh -12%, MARV entry inh 1%, NS1 inh -9%, LASV entry inh 13% and SARS PLP yeast 4%.
Screening Cc1cc(C)c2cc(CN(Cc3cccs3)Cc3nnnn3CC3CCCO3)c(=O)[nH]c2c1 (stereo not given) returned RE007 growth inh -14%, MARV entry inh inconclusive, NS1 inh -1%, Cruzain noTriton inconclusive, LASV entry inh -44%, Cruzain inh Det -3.2% and SARS PLP yeast 7%.
`O=C(c1ccccc1)c1ccc(Oc2ncccn2)cc1` gave StopGo reporter 44%[activator], RE007 growth inh -14%, MARV entry inh 8%, NS1 inh -35%, Cruzain noTriton 10%, LASV entry inh -3%, Cruzain inh Det 3.0% and SARS PLP yeast 6%.
Cc1ccc(N2C(=O)CN(Cc3sccc3C)C2=S)cc1C was read as StopGo reporter -4%, RE007 growth inh 35%, MARV entry inh 4%, NS1 inh 12%, Cruzain noTriton -2%, LASV entry inh -8%, Cruzain inh Det -7.6% and SARS PLP yeast -2%.
For O=C(NN1C(=O)NC2(CCCCC2)C1=O)c1cc(F)cc(F)c1 the results were StopGo reporter 16%, RE007 growth inh 9%, MARV entry inh inconclusive, LASV entry inh 0% and SARS PLP yeast 1%.
CCOC(=O)C(Cc1c(F)cccc1F)(NC(C)=O)C(=O)OCC was read as StopGo reporter -27%, RE007 growth inh 1%, MARV entry inh -12%, NS1 inh -1%, Cruzain noTriton -1%, LASV entry inh -19%, Cruzain inh Det 2.0% and SARS PLP yeast 3%.
For O=C(COC(=O)[C@H](Cc1c[nH]c2ccccc12)NC(=O)c1cccs1)NCc1ccccc1 the results were StopGo reporter -13%, RE007 growth inh 13%, MARV entry inh -7%, NS1 inh -10%, Cruzain noTriton -11%, LASV entry inh 8%, Cruzain inh Det -25% and SARS PLP yeast 0%.
For Cc1ccc(Cl)cc1NC(=S)N(CCCN1CCOCC1)Cc1ccccn1 the results were StopGo reporter -3%, RE007 growth inh -8%, MARV entry inh 11%, NS1 inh 12%, Cruzain noTriton -6%, LASV entry inh 11%, Cruzain inh Det -2.6% and SARS PLP yeast -5%.
`CCN(CC)c1ccc(/C=N/NC(=O)CNC(=O)c2ccc3c(c2)OCCO3)cc1` gave StopGo reporter 2%, RE007 growth inh 10%, MARV entry inh 13%[46.1 µM], NS1 inh -15%, LASV entry inh -8% and SARS PLP yeast 0%.
For Cc1ccc(NC(=O)CSc2nnc(CNC(=O)c3c(F)cccc3Cl)o2)cc1 the results were StopGo reporter -17%, RE007 growth inh -14%, MARV entry inh -1%, NS1 inh 7%, Cruzain noTriton -3%, LASV entry inh 8%, Cruzain inh Det -2.0% and SARS PLP yeast 3%.
`COc1ccc2c(c1)c1c(c(=O)n(-c3ccc(C)cc3)c(=O)n1CC(=O)c1ccc(Cl)cc1)n2C` gave StopGo reporter -11%, Cruzain noTriton -9%, LASV entry inh 17%[46.1 µM] and Cruzain inh Det -0.7%.
`CCOC(=O)N1CCC(NC(=O)C2CCN(S(=O)(=O)c3ccc4c(c3)oc(=O)n4C)CC2)CC1` gave StopGo reporter -27%, RE007 growth inh 5%, MARV entry inh inconclusive, LASV entry inh -20%[46.1 µM] and SARS PLP yeast 0%.
For O=C(COc1ccc(S(=O)(=O)N2CCOCC2)cc1Cl)NC1CC1 the results were StopGo reporter -12%, RE007 growth inh -7%, MARV entry inh 8%[46.1 µM], NS1 inh 11%, LASV entry inh 11% and SARS PLP yeast 5%.
Cc1cccc(N2CCN(C(=O)CCN3C(=S)NC(C)(C)CC3C)CC2)c1C (stereo not given) was read as StopGo reporter inconclusive, RE007 growth inh -11%, MARV entry inh inconclusive, LASV entry inh inconclusive and SARS PLP yeast inconclusive.
For CCOc1ccccc1C1C(C(=O)Nc2ccccc2OC)=C(C)Nc2nc3ccccc3n21 (stereo not given) the results were StopGo reporter -18%, MARV entry inh inconclusive, Cruzain noTriton -3%, LASV entry inh 0%[46.1 µM] and Cruzain inh Det -3.3%.
`Cc1ccc(-c2nnc(Nc3ccc(O)cc3)c3ccccc23)cc1S(=O)(=O)N1CCOCC1` gave StopGo reporter inconclusive, Cruzain noTriton -1%, LASV entry inh inconclusive and Cruzain inh Det -5.8%.
Cn1c(SCc2ccc(C(=O)Nc3nccs3)cc2)nnc1-c1ccccc1 was read as StopGo reporter -16%, RE007 growth inh 10%, MARV entry inh 15%, NS1 inh 7%, Cruzain noTriton -5%, LASV entry inh 4%, Cruzain inh Det -1.0% and SARS PLP yeast 0%.
For CC1Cc2nc(SCC(N)=O)n(Cc3ccccc3)c(=O)c2S1 (stereo not given) the results were StopGo reporter -4%, RE007 growth inh 21%, NS1 inh 10%&7% and SARS PLP yeast 6%.
For COc1ccc(CNC(=O)c2ccc3c(c2)N(Cc2c(F)cccc2Cl)C(=O)CS3)cc1 the results were StopGo reporter -25%, MARV entry inh 11µM*, Cruzain noTriton 3%, LASV entry inh inconclusive and Cruzain inh Det 2.5%.
`CCCCN(CC)CCCNC(=O)c1sc2nc3n(c(=O)c2c1C)CCCCC3` gave StopGo reporter -6%, Cruzain noTriton inconclusive, LASV entry inh -1%[46.1 µM] and Cruzain inh Det -4.9%.
`O=C(COc1ccccc1Cl)OCc1cc(=O)n2nc(C3CC3)sc2n1` gave StopGo reporter 0%, Cruzain noTriton -2%, LASV entry inh -8%[46.1 µM] and Cruzain inh Det -0.3%.
`CCN(CC)S(=O)(=O)c1ccc(NCc2ccccc2)nc1` gave StopGo reporter -4%, RE007 growth inh 9%, MARV entry inh 5%, NS1 inh -2%, Cruzain noTriton -10%, LASV entry inh 3%, Cruzain inh Det 1.1% and SARS PLP yeast -2%.
Screening CCOc1ccc(S(=O)(=O)NC(C)C(=O)NCc2ccccn2)cc1 (stereo not given) returned StopGo reporter 3%, RE007 growth inh -8%, MARV entry inh inconclusive, NS1 inh 2% and SARS PLP yeast -3%.
Cn1c(-c2ccccc2[N+](=O)[O-])[n+](C)c2ccccc21 was read as StopGo reporter -3%, RE007 growth inh -3%, NS1 inh -3% and SARS PLP yeast 1%.
Screening CC(=O)NC(c1cccc([N+](=O)[O-])c1)c1c(OC(C)=O)ccc2ccccc12 (stereo not given) returned StopGo reporter -21%, RE007 growth inh -22%, MARV entry inh inconclusive and LASV entry inh -1%.
Screening O=S1(=O)CCN(Cc2ccccc2C(F)(F)F)CC1 returned StopGo reporter -14%, RE007 growth inh 4%, MARV entry inh 5%[46.1 µM], NS1 inh -1%, LASV entry inh 8%[46.1 µM] and SARS PLP yeast 21%.
COc1ccc(O)c(/C=N/NC(=O)CSc2nnc(C)n2-c2ccccc2)c1 was read as StopGo reporter -15%, RE007 growth inh -2%, MARV entry inh -2%, NS1 inh -7%, Cruzain noTriton -3%, LASV entry inh inconclusive, Cruzain inh Det 1.8% and SARS PLP yeast 7%.
Screening COc1ccc(Br)cc1/C=N/NC(=O)C(c1ccncc1)N1CCOCC1 (stereo not given) returned StopGo reporter -2%, RE007 growth inh -7%, MARV entry inh inconclusive, NS1 inh -11%, Cruzain noTriton 3%, LASV entry inh -21%, Cruzain inh Det -0.3% and SARS PLP yeast 0%.
Screening Clc1ccccc1OCc1nc(-c2ccc(Br)o2)no1 returned StopGo reporter 27%, RE007 growth inh 0%, NS1 inh -19%, Cruzain noTriton -6%, Cruzain inh Det -4.9% and SARS PLP yeast -33%.
For O=C1CCCN1CCCN=c1c([N+](=O)[O-])nn(-c2ccc(Cl)cc2)n1O the results were StopGo reporter 1%, RE007 growth inh inconclusive, MARV entry inh inconclusive, NS1 inh -7%, LASV entry inh inconclusive and SARS PLP yeast -1%.
Cc1ccc(S(=O)(=O)N2CCCCC2)cc1C(=O)NCc1ccc(S(N)(=O)=O)cc1 was read as StopGo reporter -12%, RE007 growth inh 1%, MARV entry inh -5%, LASV entry inh 0% and SARS PLP yeast 0%.
CCCCc1n[nH]c(=S)n1Cc1ccccc1 was read as StopGo reporter 2%, RE007 growth inh 2%, NS1 inh 6% and SARS PLP yeast 0%.
